Kir21 inh: inhibitors of mouse Kir2.1 inward-rectifier potassium channel. Inward rectifier potassium channel 2 (Mus musculus), P35561. HEK293-Kir2.1, FluxOR thallium flux fluorescence; stronger effect = lower value. B-score at 10 µM. hit rate 0.85% among 310,000. AID 1672, 2009;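 active = fluorescence ratio B-score at or below minus 3 SD of library scores, with starting-brightness B-score within 2 SD, cut at about -4.2 in these data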;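 note: channel flux triggered by added potassium and thallium sulfate stimulus; B-score of peak minus minimum fluorescence over baseline after thallium stimulus; more negative B-score means stronger Kir2.1 block with less thallium influx; some compounds called inactive have numbers as strong as hits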
Target sequence (P35561 whole entry, looked up): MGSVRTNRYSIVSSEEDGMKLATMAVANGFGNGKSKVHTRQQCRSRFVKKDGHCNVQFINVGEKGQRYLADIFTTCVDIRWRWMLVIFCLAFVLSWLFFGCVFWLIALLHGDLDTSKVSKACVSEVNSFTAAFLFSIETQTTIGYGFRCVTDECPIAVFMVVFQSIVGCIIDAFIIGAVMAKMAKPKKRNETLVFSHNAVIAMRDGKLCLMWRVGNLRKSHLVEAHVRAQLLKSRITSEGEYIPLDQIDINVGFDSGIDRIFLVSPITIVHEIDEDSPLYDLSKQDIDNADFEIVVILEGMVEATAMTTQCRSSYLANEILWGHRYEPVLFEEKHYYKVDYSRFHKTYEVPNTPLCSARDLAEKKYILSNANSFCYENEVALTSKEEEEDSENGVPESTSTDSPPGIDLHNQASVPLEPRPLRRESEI
Starred values were filed as active, the others as inactive. Only part of the results is shown, and most or all hits are left out here.

SMILES	Kir21 inh
CCCc1cc(=O)oc2cc(C)cc(OCC(=O)NCc3cccnc3)c12	-1
CC(Sc1nc(-c2ccccc2)cc(C(F)(F)F)n1)C(=O)O (stereo not drawn)	0.68
O=C(Cn1c(O)c(/C=C2\C=Nc3ccccc32)sc1=O)Nc1ccc2c(c1)OCO2	1.7
CC1(C)CC2(CCO1)OC(=O)CC2C(=O)Nc1ccccc1Cl (stereo not drawn)	1.5
O=C(NCCC1CCCCN1S(=O)(=O)c1ccc(F)cc1)C(=O)NCC1CCCO1 (stereo not drawn)	-0.06
Cc1ccc(S(=O)(=O)N2CCOC23CCN(S(=O)(=O)c2cccs2)CC3)cc1	0.6
COCCN(CCOC)C(=O)c1c[nH]c2ccc(S(=O)(=O)N(C)c3ccc(F)cc3)cc2c1=O	-0.01
CCOC(=O)C1=C(COC(=O)/C=C/c2ccccc2F)NC(=O)NC1C (stereo not drawn)	1.1
CCCCNC(=O)c1cc(-c2ccc(OC)c(OC)c2)on1	-0.01
Cc1ccccc1C(=O)Nc1ccc2nc3n(c(=O)c2c1)CCC3	0.66
Cc1c(C(=O)Oc2ccc(-c3cnc4ccccc4n3)cc2)cccc1[N+](=O)[O-]	0.63
CCc1cc(C(=O)OC)c(NC(=O)CC2SC(=NC)N(C)C2=O)s1 (stereo not drawn)	-1.6
CC(=O)Nc1ccc(OCc2cnc(Cl)s2)cc1	0.05
C/C(=N/NC(=O)c1cc(-c2cccc([N+](=O)[O-])c2)n[nH]1)c1cccc(O)c1	-0.53
O=C(C(=O)c1cccnc1)c1cccnc1	-0.45
O=C(NCc1csc2ccc(Cl)cc12)Nc1ccccc1	-0.59
O=C(CCNC(=O)c1ccc([N+](=O)[O-])cc1)Nc1ccc(F)cc1F	1.7
COc1ccc2nc(NC(=O)C3CCCN(S(=O)(=O)c4cccs4)C3)sc2c1 (stereo not drawn)	0.93
Nc1ccccc1-c1ccccc1N	-0.1
O=C(CSC1=NS(=O)(=O)c2ccccc2N1)Nc1nccs1	-1.1
Cc1cc(-c2ccc(Cl)cc2)n2nc(C)cc2n1	0.17
COc1ccc(OC)c(CNS(=O)(=O)c2cc(CN3C(=O)c4cccnc4C3=O)ccc2OC)c1	-0.96
CC1NC(=O)N(C)C2NC(=O)N(C)C(c3ccccc3)C12 (stereo not drawn)	2.6
Cc1nnc(NC(=O)c2ccc(C)c(S(=O)(=O)N3CCCCCC3)c2)s1	0.62
COc1ccc(CCNC(=O)c2ccc3c(c2)N(Cc2ccccc2)CCS3)cc1OC	-0.09
CCOc1ccc(C(C#N)N2CCOCC2)cc1OC (stereo not drawn)	-0.19
O=C(NC1CCS(=O)(=O)C1)C1CCCC1 (stereo not drawn)	0.84
Cc1ccc(C2c3[nH]c4ccccc4c3C[C@H]3C(=O)N(c4ccccc4C(=O)N4CCC[C@H]4C(=O)O)C(=O)N23)cc1 (stereo partly drawn)	0.94
CNS(=O)(=O)c1cccc(C(=O)NCC(c2cccs2)N(C)C)c1 (stereo not drawn)	0.88
CCOC(=O)Nc1ccc2c(C)cc(=O)oc2c1	0.98
O=C(CCNC(=O)c1ccc(Br)cc1)NCC1CCCO1 (stereo not drawn)	-0.37
CC1CCCN(C(=O)CN2C(=O)c3ccccc3C2=O)C1 (stereo not drawn)	-0.1
Cc1cccc(OCC2=NS(=O)(=O)c3ccccc3N2)c1	-0.37
CCCc1cc(=O)[nH]c(SCC(=O)c2ccc(S(=O)(=O)N3CCCC3)cc2)n1	-1.4
CNC(=S)NC1CC2CCC(C1)N2Cc1ccccc1 (stereo not drawn)	1.3
COc1cc(C(=O)N(Cc2ccccn2)CC2CCCO2)cc(OC)c1OC (stereo not drawn)	-0.01
COC(=O)COc1c(Cl)cc(Cl)c2ccc(C)nc12	1.1
COc1ccc(NS(=O)(=O)c2ccc(NS(C)(=O)=O)cc2)cc1	1.1
FC(F)(F)c1cccc(N2CCC(N=CN3CCCCCC3)=N2)c1	2.1
COc1ccccc1NC(=O)C1CCC(CNc2c(N3CCCCC3)c(=O)c2=O)CC1 (stereo not drawn)	-1.7
Cc1ccccc1C(=O)NNC(=O)Cc1ccccc1	0
CN(C)c1ccc(C(=O)OCC(=O)NCC2CCCO2)cc1 (stereo not drawn)	1.7
N#CC1=C(N)N(c2ncn[nH]2)C2=C(C(=O)CCC2)C1c1ccccc1 (stereo not drawn)	-0.7
CCN(CC)c1ccc(NC(=O)/C=C/c2cc(Br)ccc2OC)cc1	-0.02
C#CCOC(=O)CCCC(=O)Nc1ccccc1OC	0.04
CC(C)(C)c1nnc(NS(=O)(=O)c2ccc([N+](=O)[O-])cc2)s1	0
COCC(=O)N(C)CC1CCCN(CCc2ccccc2OC)C1 (stereo not drawn)	1.1
Cc1ccc2nc(-c3ccc(S(=O)(=O)N4CCCCC4)cc3)cn2c1	-1.6
CCNC(=O)c1c(O)c2cccc3c2n(c1=O)CC3	-0.4
COc1cccc(S(=O)(=O)Nc2ccc3sc(C)nc3c2)c1	-1.1
Cc1cccc(N2CC(O)=C(c3nc4ccccc4n3C)C2=N)c1	-0.19
COc1ccc(-c2[nH]nc(-c3ccccc3)c2-c2nc3ccccc3[nH]2)cc1	-0.15
Cc1ccc(C)c(OCCN2C(=O)NC3(CCc4ccccc4C3)C2=O)c1 (stereo not drawn)	0.84
Cc1oc(-c2ccccc2Cl)nc1CS(=O)CC(=O)NCc1ccc(Cl)cc1 (stereo not drawn)	-0.63
CCS(=O)(=O)c1c([N+](=O)[O-])ncn1C	-0.34
CCCCC(=O)N1C/C=C\C(c2ccc(OC)cc2)N(Cc2ccc(F)cc2)C(=O)C1 (stereo not drawn)	-0.67
O=C(Cn1nnc2ccccc2c1=O)Nc1ccc2c(c1)CCC2	-0.08
N#CCCCn1c(=O)oc2ccccc21	0.96
CCC(=O)Nc1nc(C)nc(C)c1C(C)=O	-0.16
COc1ccc(N2CC(C(=O)Nc3ccc(N4CCOCC4)cc3)CC2=O)cc1 (stereo not drawn)	-0.69
Other results:
SMILES	Kir21 inh
COc1ccc(CNC(=O)c2c(O)c3cc(OC)c(OC)cc3[nH]c2=O)cc1OC	1.9
COc1ccc(C(=O)NC(C)c2nnc(SCC(=O)Nc3nc4ccccc4s3)n2C)cc1 (stereo not drawn)	-0.29
CCCc1nc2oc3ccccc3c(=O)c2c(=O)n1-c1ccccc1	1.3
COc1ccc(CCNC(=O)CSc2c[nH]c3ccccc23)cc1OC	-0.09
CC(=O)Nc1ccc(OS(=O)(=O)c2cc(Cl)ccc2C)cc1	-1.3
CCS(=O)(=O)NCCc1cc2c(OC)ccc(OC)c2[nH]c1=O	0.17
COc1cc(OC)cc(C(=O)OCn2nnc3ccccc3c2=O)c1	0.69
COc1ccc(S(=O)(=O)NCC2CCCN(C(=O)CCC(F)(F)F)C2)cc1 (stereo not drawn)	0.78
COc1ccc(-c2cn(CCO)nc2-c2ccc(OC)cc2)cc1	0.34
Cc1ccc(C)c(NC(=O)CSc2nc(=O)n(CCN3CCOCC3)c3c2CCCC3)c1	-0.26
Cc1cccc(OCCCC(=O)Nc2ccc(S(=O)(=O)Nc3ncccn3)cc2)c1C	0.64
c1ccc(COc2cccc(CN3CCCCC3)c2)cc1	-2.5
CC(C(=O)Nc1cccnc1)C1Sc2ccccc2NC1=O (stereo not drawn)	-0.84
COCCOc1cc(NC(=O)CS(=O)CC(=O)N(C)C)c(Cl)cc1Cl (stereo not drawn)	-1.2
c1cnn(Cc2cnc(N3CCOCC3)s2)c1	0.33
Cc1cc(C(F)(F)F)nn1CC(=O)NNC(=S)Nc1ccc(F)cc1	0.97
Cc1cccc(OCC(=O)O/N=C(\N)c2ccncc2)c1	-0.93
CN(NC(=O)Nc1ccc(Cl)cc1)c1c(Cl)c(Cl)nn1C	0.34
Cc1cc(C)c(C(N)=O)c(Cl)n1	0.02
O=C(Nc1ccncc1)C1CCCN(S(=O)(=O)c2cccc3cccnc23)C1 (stereo not drawn)	0.2
CCC(=O)N1Cc2ccccc2-c2ccccc2C1=O	0.77
COc1cc(C(=O)OC(C)CN2CCCC2)cc(OC)c1OC (stereo not drawn)	0.56
O=[N+]([O-])c1ccc2c(OCc3nnc(-c4ccccc4Br)o3)ncnc2c1	-0.01
O=C(c1ccccc1NS(=O)(=O)c1ccc(F)cc1)N1CCCCC1	-0.05
CCC1CCCCN1CCCNC(=O)c1ccc(CS(=O)(=O)c2ccccc2C)o1 (stereo not drawn)	-0.85
COc1ccccc1CNc1nc2nc(C)cc(=O)n2[nH]1	0.45
O=C(Nc1cccc(F)c1)c1ccc2c(c1)OCO2	0.71
c1ccc(-c2nnc(CSc3nc4ccccc4[nH]3)o2)cc1	-0.26
COc1ccc(N(C)S(=O)(=O)c2ccc3c(c2)CCC(=O)N3)cc1	-2.4
COc1ccc(-c2cnc3nc(/N=C/N(C)C)nn3c2/N=C/N(C)C)cc1	1.4
C/C(=N\Nc1nc2ccc(Cl)cc2o1)c1ccccc1	0.36
c1ccc2c(c1)nc(CN1CCOCC1)n1c3ccccc3nc21	-0.77
COc1ccc(NC(=O)c2ccc(S(=O)(=O)NCc3cccnc3)cc2)cc1	0.64
CC(C)c1ccc(CNc2nnnn2C)cc1	-0.75
CC(=O)COC(=O)CNC(=O)c1ccc(Br)cc1	-1.7
COc1ccc(C)cc1N(CC(=O)Nc1cccnc1)S(=O)(=O)c1ccc(C)cc1	-0.22
O=C(CCn1c(=O)oc2ccccc21)N1CCc2ccccc21	-0.08
Cc1nc(-c2ccc(O)c(O)c2)cs1	-0.46
COC(=O)c1cc(C(=O)OCC(=O)NC2CCS(=O)(=O)C2)cc([N+](=O)[O-])c1 (stereo not drawn)	-1.4
N#CC1=C(N)N(c2ccccc2)C2=C(C(=O)CCC2)C1c1ccsc1 (stereo not drawn)	1.2
COc1cc(NC(=O)c2cnn3c(C(F)F)cc(C4CC4)nc23)c(OC)cc1Cl	-0.01
COc1ccc(C2=CC3=C(Br)C(=O)C(C)(OC(=O)C4CCCC4)C(=O)C3=CO2)cc1 (stereo not drawn)	-0.39
Cn1c(SCC(=O)NCc2ccco2)nnc1C1CCCC1	0.67
CCc1ccc(-c2nc(CS(=O)CC(=O)NCc3cccnc3)c(C)o2)cc1 (stereo not drawn)	-0.06
Cn1c(=O)c2c(nc(SCC(=O)Nc3ccccc3)n2C)n(C)c1=O	0.45
O=C(N/N=C/c1ccc2c(c1)OCO2)C(=O)Nc1ccc2ccccc2c1	1.4
O=C1c2ccccc2NC(c2ccco2)N1O (stereo not drawn)	-0.54
COC(Cn1cc(C)c(=O)[nH]c1=O)OC	2.6
CCn1c(CSCc2ccc(Cl)cc2)nnc1SCC(=O)Nc1cccc(C(=O)O)c1	1.4
CCc1ccc(-c2csc(NC(=O)c3cccnc3)n2)cc1	-0.01
O=C(CCc1nc2ccccc2c(=O)[nH]1)Nc1nc(-c2cccs2)cs1	1.1
COc1ccc2oc(C(=O)OCC(=O)N(Cc3ccccc3)C(C)C)c(C)c2c1	2.3
COc1ccc(OC)c(-n2cc3c(=O)n(C)c(=O)n(C)c3c2)c1	2
Cc1nnc(N/N=C/c2cccc(C(F)(F)F)c2)n1N	0.36
CC(C)=NNc1nc2c(c(=O)n(C)c(=O)n2C)n1CCc1ccccc1	-0.87
O=C(CCC(=O)c1cccs1)NCc1cccnc1	-1.6
Cc1ccn(CCC(=O)N2CCCC(CCC(=O)NCc3ccc(F)c(F)c3)C2)n1 (stereo not drawn)	-1.4
CCOC(=O)N1CCC(N(CCN(C)C)C(=S)Nc2cc(Cl)cc(Cl)c2)CC1	-0.06
Cc1nc(-c2ccccc2)sc1-c1ccnn1C	0.66
Cc1cc(OC(=O)c2cc(Br)ccc2Cl)c([N+](=O)[O-])c(=O)[nH]1	0.61
Next part
SMILES	Kir21 inh
N/C(=N\OC(=O)c1ccccc1Cl)c1cccnc1	0.37
Cc1cc(Oc2ccc(=O)[nH]n2)nc(Cl)n1	-0.83
COC(=O)Cc1c(C)c2ccc(OCC(C)=O)c(C)c2oc1=O	0.01
O=C(/C=C/c1ccccc1)OCC(=O)c1ccc[nH]1	-0.73
Cc1cc(C)cc(OCC(=O)Nc2ccc(CN3CCCCC3)cc2)c1	-0.6
COc1ccc(-c2nn3c(-c4ccco4)nnc3s2)cc1OC	-1.4
COc1ccc(C(=O)N=C2CCC(C#N)=C3c4cc(OC)c(OC)cc4CCN23)cc1	1.5
O=C1CCCN1C(=O)CCC(=O)N1CCCC1=O	-0.63
NNC(=O)c1ccccc1OCc1ccccc1	1.9
Cc1cc(C)nc(SCc2ccc(C(=O)NNC(=O)Nc3cccc(Cl)c3)cc2)n1	0.31

Structures from the list above that contain an NH in an aromatic ring, in the order listed:
SMILES	Kir21 inh
COCCN(CCOC)C(=O)c1c[nH]c2ccc(S(=O)(=O)N(C)c3ccc(F)cc3)cc2c1=O	-0.01
C/C(=N/NC(=O)c1cc(-c2cccc([N+](=O)[O-])c2)n[nH]1)c1cccc(O)c1	-0.53
Cc1ccc(C2c3[nH]c4ccccc4c3C[C@H]3C(=O)N(c4ccccc4C(=O)N4CCC[C@H]4C(=O)O)C(=O)N23)cc1 (stereo partly drawn)	0.94
CCCc1cc(=O)[nH]c(SCC(=O)c2ccc(S(=O)(=O)N3CCCC3)cc2)n1	-1.4
N#CC1=C(N)N(c2ncn[nH]2)C2=C(C(=O)CCC2)C1c1ccccc1 (stereo not drawn)	-0.7
COc1ccc(-c2[nH]nc(-c3ccccc3)c2-c2nc3ccccc3[nH]2)cc1	-0.15
COc1ccc(CNC(=O)c2c(O)c3cc(OC)c(OC)cc3[nH]c2=O)cc1OC	1.9
COc1ccc(CCNC(=O)CSc2c[nH]c3ccccc23)cc1OC	-0.09
CCS(=O)(=O)NCCc1cc2c(OC)ccc(OC)c2[nH]c1=O	0.17
COc1ccccc1CNc1nc2nc(C)cc(=O)n2[nH]1	0.45
c1ccc(-c2nnc(CSc3nc4ccccc4[nH]3)o2)cc1	-0.26
COC(Cn1cc(C)c(=O)[nH]c1=O)OC	2.6
O=C(CCc1nc2ccccc2c(=O)[nH]1)Nc1nc(-c2cccs2)cs1	1.1
Cc1cc(OC(=O)c2cc(Br)ccc2Cl)c([N+](=O)[O-])c(=O)[nH]1	0.61
Cc1cc(Oc2ccc(=O)[nH]n2)nc(Cl)n1	-0.83
O=C(/C=C/c1ccccc1)OCC(=O)c1ccc[nH]1	-0.73
